Bioassay records (PubChem)
MT1-MMP reporter: MT1-MMP gene expression reporter suppression – cell-based, luciferase reporter, luminescence (AID 618). MT1-MMP promoter luciferase reporter cells, luminescence. calls from a first round at 10 µM; hits with a dose series show EC50 in µM. hit rate 0.62% among 87,000;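 active means over half of the reporter light lost at 10 µM or EC50 under 50 µM; inactive means the rest and hits that failed the dose series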;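 further: actives suppress MT1-MMP promoter-driven transcription so potencies describe inhibitors; HT1080 fibrosarcoma cells; overnight exposure; toxic or luciferase-blocking compounds were not removed from the actives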
WNV protease inh: WNV NS2B-NS3 proteinase inhibition | P06935 | AID 577 | z-score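 (tested at a level between 10 and 100 µM)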 | hit rate 0.18% among 65,000 | WNV NS2B-NS3 protease, fluorogenic substrate Ex360/Em465; active compounds read low;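 active means z-score at -3 or under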;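 further: score is relative to mean and spread of the compound wells of a plate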
Target sequence (P06935 1371-1501 limits assumed): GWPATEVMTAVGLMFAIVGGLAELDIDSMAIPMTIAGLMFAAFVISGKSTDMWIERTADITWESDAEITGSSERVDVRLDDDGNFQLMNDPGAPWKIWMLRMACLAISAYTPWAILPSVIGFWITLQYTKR
Target sequence (P06935 1502-1679 limits assumed): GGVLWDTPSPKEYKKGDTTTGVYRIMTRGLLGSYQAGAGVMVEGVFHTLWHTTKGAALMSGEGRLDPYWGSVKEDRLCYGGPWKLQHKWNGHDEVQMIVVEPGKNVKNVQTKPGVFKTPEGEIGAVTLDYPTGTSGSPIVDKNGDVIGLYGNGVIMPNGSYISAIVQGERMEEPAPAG
Hsc70 ATP site: Hsc70 inhibitors, probe displacement, primary screen, biochemical, fluorescence polarization (AID 568); Hsc70 fluorescence polarization, probe displacement; higher % means a stronger effect; strong numbers were not always called active; displacement, % at 20 µM, or IC50 in µM where a hit was titrated; 83,000 tested, under 10 active;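 active means displacement above 50% without optical interference and an IC50 on retest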;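 further: ATPase domain with a fluorescein-tagged ATP probe; 0% = vehicle and 100% = excess ADP; read after one hour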
An asterisk follows results filed as active; i = inactive; · = no result given.

#	Structure	MT1-MMP reporter	WNV protease inh	Hsc70 ATP site
1	CCCCCCCCNC(C)C(O)c1ccc(SC(C)C)cc1 (centres undefined)	i	-0.03	2.0%
2	Cc1cccc(OCCCC(=O)Nc2nccs2)c1	i	0.17	-5.4%
3	O=S(=O)(c1cccc(S(=O)(=O)N2CCC(Cc3ccccc3)CC2)c1)N1CCOCC1	i	-0.9	1.3%
4	Cc1cccc(CCNS(=O)(=O)c2ccc(S(=O)(=O)N3CCCCC3)cc2)c1	i	·	1.6%
5	O=C(C1CCN(S(=O)(=O)c2cccc3cccnc23)CC1)N1CCN(c2ccc(Cl)cc2)CC1	i	0.18	-2.2%
6	O=C1CCc2cc(S(=O)(=O)NC(Cc3ccccc3)C(=O)NCC3CCCO3)ccc2N1 (centres undefined)	i	0.93	3.0%
7	Cc1ccccc1C(=O)Nc1cccc(N)c1	i	-0.35	0.0%
8	CCN1CCN(C(c2cccs2)C(C)NC(=O)C(C)C)CC1 (centres undefined)	i	1.9	4.5%

From compound 4 up to 8, as listed above:
#	Structure	MT1-MMP reporter	WNV protease inh	Hsc70 ATP site
4	Cc1cccc(CCNS(=O)(=O)c2ccc(S(=O)(=O)N3CCCCC3)cc2)c1	i	·	1.6%
5	O=C(C1CCN(S(=O)(=O)c2cccc3cccnc23)CC1)N1CCN(c2ccc(Cl)cc2)CC1	i	0.18	-2.2%
6	O=C1CCc2cc(S(=O)(=O)NC(Cc3ccccc3)C(=O)NCC3CCCO3)ccc2N1 (centres undefined)	i	0.93	3.0%
7	Cc1ccccc1C(=O)Nc1cccc(N)c1	i	-0.35	0.0%
8	CCN1CCN(C(c2cccs2)C(C)NC(=O)C(C)C)CC1 (centres undefined)	i	1.9	4.5%

More results follow:
#	Structure	MT1-MMP reporter	WNV protease inh	Hsc70 ATP site
9	O=C(N/C(=C/c1cccs1)C(=O)N1CCCCCC1)c1ccccc1	i	·	-3.7%
10	Cc1nn2c([nH]c(=O)c3ccccc32)c1C=O	i	·	-1.3%
11	COC(=O)c1cn(NC(=O)c2cnccn2)c(=O)c2ccccc12	i	-0.66	-1.2%
12	CCc1ccc2nc(SCC(=O)N3CC(=O)Nc4ccccc43)c(C#N)cc2c1	i	·	2.7%
13	COc1ccc(OC)c(NC(=O)c2cc3sccc3n2C)c1	i	-0.71	0.0%
14	Cc1ccc(S(=O)(=O)N2CCCCC2)cc1C(=O)Nc1ncn[nH]1	i	0.96	-4.2%
15	Cc1csc(N(C(=O)c2cccc(S(=O)(=O)N3CCCC3)c2)c2ccccc2)n1	i	·	0.7%
16	COc1ccc(NC(=O)CSC2=C(C#N)C(c3ccco3)C3=C(CCCC3=O)N2)c(OC)c1 (centres undefined)	i	-0.18	0.9%
17	Cc1ccc(NC(=O)CCNS(=O)(=O)c2ccc3c(c2)oc(=O)n3C)cc1C	i	0.14	-7.4%
18	O=C(Nc1cccnc1)Nc1ccccn1	i	-0.53	0.1%
19	O=C(Cn1nc(C(F)F)cc1C1CC1)NCCC1=CCCCC1	i	1.2	6.4%
20	COc1ccc(C(C)=O)cc1COC(=O)c1ccc(OCc2c(C)noc2C)cc1	i	-0.61	5.6%
21	CCCCCOC(=O)NCC(O)c1ccccc1 (centres undefined)	i	0.8	-0.5%
22	Cc1cc(C)n(CC(O)COCc2ccco2)n1 (centres undefined)	i	0.46	1.8%
23	O=C1c2ccccc2CCC12N=NCC2c1ccc(Br)cc1 (centres undefined)	i	·	4.4%
24	Cn1c(C(=O)O)c(CC(=O)NCc2cccnc2)c2ccccc21	i	-0.9	6.7%
25	O=c1cnn(-c2ccccc2)c(-c2ccccc2)c1	i	0.84	2.5%
26	CN(C)C(C(=O)NC1CCCCC1)c1ccc(Cl)cc1 (centres undefined)	i	-1.1	-3.3%
27	CCOc1ccc2c(c1)c1nnc(SCC(=O)N3CCCCC3C)nc1n2C (centres undefined)	i	0.73	-3.2%
28	COc1ccccc1C(=O)N1CCC(C(=O)c2ccc(F)cc2)CC1	i	1.1	-0.3%
29	N#Cc1nc(-c2ccc(F)cc2)oc1N1CCCC1	i	0.35	-3.5%
30	O=S(=O)(c1ccc(-c2nc3ccccc3s2)cc1)N1CCCC1	i	·	-0.7%
31	COC(=O)c1ccccc1NC(=O)Cn1nnc(-c2ccc(OC)cc2)n1	i	·	2.0%
32	CN1/C(=C\C(=O)COC(=O)Cn2nnc(-c3ccccc3)n2)C(C)(C)c2ccccc21	i	0.05	-31%
33	Cc1cc(C)c2c(N)c(-c3nc4ccccc4[nH]3)sc2n1	i	·	1.6%
34	CCCCOC(=O)c1cccc(NC(=O)CCC(=O)O)c1	i	0.3	-2.2%
35	c1ccc(CCc2nn3c(Cn4nnc5ccccc54)nnc3s2)cc1	i	1.7	-2.3%
36	C=C(Br)Cn1c(CC(C)C)nc2ccccc21	i	-0.05	1.3%
37	COC(=O)n1c(=O)oc2ccccc21	i	0.29	2.5%
38	CCn1c2ccc(OC)cc2c2nc3ccccc3nc21	i	·	10%
39	CS(=O)(=O)N(CC(=O)O)c1cc(Cl)cc(Cl)c1	i	1	0.1%
40	FC(F)(F)c1ccc(N2CCN(c3cc(-c4ccccc4)nc4ncnn34)CC2)nc1	i	-1.3	-6.1%
41	CCOC(=O)c1oc2ccccc2c1CN1CCN(c2ccccc2)CC1	i	-0.78	2.5%
42	Cc1cc(C)cc(N2C(=O)CC(n3nc(C)cc3C)C2=O)c1 (centres undefined)	i	·	4.6%
43	CCOCCCNS(=O)(=O)c1ccccc1	i	·	-0.9%
44	CCOC(=O)Nc1ccc2c(c1)N(C(=O)CCN1CCN(C)CC1)c1ccccc1S2	i	·	4.6%
45	CCOC(=O)c1cnc(SCc2ccccc2)nc1N	i	-0.45	1.1%
46	O=C(CN1C(=O)C2C3C=CC(C3)C2C1=O)NCCc1ccccc1Cl (centres undefined)	i	2.3	1.7%
47	O=c1c(Cl)c(NCCCO)cnn1-c1nc2ccccc2[nH]1	i	·	-4.1%
48	N/C(=N\OS(=O)(=O)c1ccc(Br)cc1)c1ccncc1	i	·	1.7%
49	CCCC(C)NC(=O)c1cc(Cl)ccc1OC (centres undefined)	i	·	4.5%
50	COc1ccc(N2CCN(C3CC(=O)NC3=O)CC2)cc1 (centres undefined)	i	-0.6	-2.1%
51	O=C(CC(C(=O)O)C1CCCO1)NCc1ccccc1 (centres undefined)	i	-0.7	-7.1%
52	CCOC(=O)Cc1nnc(NC(=O)CSc2ccccc2)s1	i	0.0083	-12%
53	O=C(NCCc1ccccn1)C1CCCN(S(=O)(=O)Cc2ccccc2)C1 (centres undefined)	i	0.3	-0.7%
54	Cc1cc(C)n(-c2cc(C)c(C)cc2Br)n1	i	-0.05	9.7%
55	Cc1nn(C)c(C)c1/C=C/C(=O)c1cccs1	i	·	0.8%
56	O=C1C2ON(c3ccccc3)C(c3ccccc3F)C2C(=O)N1c1ccccc1 (centres undefined)	i	-2.1	0.4%
57	c1ccc2c(c1)[nH]c1nc(SCCN3CCOCC3)nnc12	i	0.66	4.1%
58	Cc1nnc(SC(C)C(=O)Nc2ccc(Cl)cn2)n1Cc1ccccc1 (centres undefined)	i	0.49	0.8%
59	CCOC(=O)Cc1csc(NC(=O)CSc2nnc(-c3ccc(OC)cc3)n2C)n1	i	-0.54	2.3%
60	CC(=O)Nc1ccc(-c2nc3c(C)cccc3[nH]2)cc1	i	2.6	1.8%
61	O=c1cc(N2CCN(c3ccccc3)CC2)[nH]c(=O)n1Cc1ccc(F)cc1	i	0.94	5.2%
62	Cc1ccc(S(=O)(=O)NCC(=O)N2CCN(c3ccccn3)CC2)cc1	i	·	6.0%
63	Cc1cccc(NC(=O)Nc2ccc(Oc3c(F)c(F)c(F)c(F)c3F)cc2)c1	i	·	-1.4%
64	COc1cc2nc(C3CCC3)n(NC(=O)C3CCCC(OC)C3)c(=O)c2cc1OC (centres undefined)	i	-0.87	3.7%

Continued.
#	Structure	MT1-MMP reporter	WNV protease inh	Hsc70 ATP site
65	COCCn1c(C)cc(C(=O)CSc2nc(C)nc3sc4c(c23)CCC4)c1C	i	0.26	0.7%
66	Cc1cc(Cl)ccc1OCCCC(=O)N1CCN(C)CC1	i	·	-0.3%
67	COc1ccc(C)cc1S(=O)(=O)N1CCCC(C(=O)NCC2CCCO2)C1 (centres undefined)	i	-0.17	-0.5%
68	c1ccc(Cn2c(Sc3nnnn3-c3ccccc3)nnc2-c2ccccc2)cc1	i	-0.61	4.8%
69	O=C(Cn1nc(Cl)nc1Cl)Nc1ccccc1	i	1.1	3.6%
70	O=S(=O)(NCC(c1cccnc1)N1CCN(c2ccc(F)cc2)CC1)c1ccc(F)cc1 (centres undefined)	i	-0.02	3.5%
71	C=CCC(C#Cc1ccc(C)cc1)N(CC)CC (centres undefined)	i	·	-15%
72	Cc1ccc(N2CC(C(=O)Nc3ccc4c(c3)OCCO4)CC2=O)cc1 (centres undefined)	i	-0.74	0.9%
73	COc1ccc(CC(=O)N2CC3(C)CC2CC(C)(C)C3)cc1OC (centres undefined)	i	2.7	-1.9%
74	CCCn1c(=O)c(C(=O)Nc2ccccc2C(=O)OC)c(O)c2ccccc21	i	-1	8.3%
75	Cc1cccc(NC(=O)COc2ccccc2C)n1	i	-1.1	1.8%
76	Cc1cc(C)c(C#N)c(SCC(=O)Nc2nnc(-c3ccccc3)s2)n1	i	0.48	-13%
77	O=C(C1CCC(=O)N1Cc1ccccc1Cl)N1CCN(c2ccc(F)cc2)CC1 (centres undefined)	i	-0.58	-1.3%
78	O=C(Nc1ccc(Cl)cc1)N1CCc2[nH]c3ccccc3c2C1	i	·	-1.2%
79	c1ccc(CN(Cc2cccs2)C(c2cccs2)c2nnnn2C2CCCC2)cc1 (centres undefined)	i	·	2.6%
80	CC(C)(C)OC(=O)N1CC(O)CC1C(=O)OCC(=O)c1ccccc1 (centres undefined)	i	·	-1.8%
81	O=C(C1=C(O)/C(=C/c2ccc(O)cc2)CCC1)C(F)(F)F	i	·	-4.1%
82	C[N+](C)(C)CCN(Cc1ccc(Cl)cc1)c1ccccn1	i	·	5.1%
83	COc1ccc(C(=O)/C=C(\N)C(F)(F)F)c(O)c1	i	2.4	-5.0%
84	CCC(=O)n1nc(-c2ccccc2)nc1N	i	·	-6.9%
85	CCCc1cc(=O)[nH]c(SCC(=O)N2CCC(C(=O)OCC)CC2)n1	i	-0.25	-6.2%
86	COc1ccc(Nc2nc3ccccc3n3nnnc23)cc1	i	·	8.9%
87	O=C(CSc1nnc(-c2ccco2)n1Cc1ccccc1)NC(=O)NCc1ccccc1	i	1.7	2.3%
88	CC(C)c1ccc(OCC(O)Cn2cnc3ccccc32)cc1 (centres undefined)	i	0.89	-4.5%
89	O=C(Cn1c(SCC(=O)N2CCc3ccccc32)nc2ccccc21)NC1CCCC1	i	·	4.2%
90	O=C(Nc1ccc(Cl)c(Cl)c1)C1CC(=O)N(c2ccc(Br)cc2)C1 (centres undefined)	i	·	-0.2%
91	O=C(c1ccc(Cl)s1)N1CCCC1	i	·	-4.3%
92	Nc1nc(CN2CCN(Cc3ccccc3)CC2)nc(Nc2ccc3c(c2)OCCO3)n1	i	1.4	2.2%
93	COc1ccc(N2C(=O)C(Cl)=C(Nc3ccccc3O)C2=O)cc1	i	·	-2.3%
94	COCCn1c(C)cc(C(=O)COC(=O)c2c(C)nn(Cc3ccccc3)c2C)c1C	i	0.02	8.9%
95	O=C1CC(c2ccccc2)n2nc(NC(=O)c3cccs3)nc2N1 (centres undefined)	i	-0.17	2.4%
96	Cc1occc1-c1n[nH]c(=S)n1CC(C)C	i	·	2.4%
97	C=CCn1c(SCC(=O)/C(C#N)=C(\C)N)nc2sc(C)c(C)c2c1=O	i	·	3.6%
98	COc1ccc(NC(=O)CCC(=O)Nc2nnc(C(F)(F)F)s2)c(OC)c1	i	·	-2.4%
99	N#Cc1nc(Cc2cccc3ccccc23)oc1NCCN1CCOCC1	i	·	-0.3%
100	CCN(CCC(=O)Nc1cc(OC)cc(OC)c1)Cc1ccccc1	i	-1.3	3.2%
101	CCN(CC)CCOC(=O)C1(C2CCCCC2)CCCCC1	i	0.65	1.0%
102	Cn1c(COc2ccc3ccccc3c2)nnc1SCC(=O)O	i	0.68	2.6%
103	CC(=O)N1CC=C2C(C#N)=C(N)C(C#N)(C#N)[C@H](c3ccoc3)[C@H]2C1	i	-0.07	5.5%
104	CCCn1c(SCC(=O)Nc2ccccc2C(=O)OCC)nc2c1c(=O)n(C)c(=O)n2C	i	-0.64	0.9%
105	Cc1cc(NC(=O)C2CCCC2)n(-c2nc3ccccc3[nH]2)n1	i	·	-4.1%
106	O=C(CCS(=O)CCC(=O)NCc1ccccc1)NCc1ccccc1	i	-0.53	0.6%
107	Cc1cc(C)n(C(=O)c2cccc(S(=O)(=O)N3CCCC3)c2)n1	i	-2	0.6%
108	O=c1oc2ccccc2n1Cc1ccccc1Cl	i	-0.27	-0.4%
109	N/C(Cc1cccs1)=N\OC(=O)COc1ccc(Br)cc1Cl	i	·	0.8%
110	O=C(NCc1cccnc1)c1ccc2c(c1)OCO2	i	0.83	-0.1%
